Compound activity from PubChem.
LYP inhibition: inhibitors of LYP phosphatase, biochemical, fluorescence intensity, uHTS (AID 1779). recombinant LYP phosphatase, fluorescence intensity; higher % means a stronger effect. inhibition, % at 11.5 µM; hits with a dose series show IC50 in µM. actives 0.054% (n = 290,000); in the data active means inhibition above about 50%;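 further: plate controls were vehicle with enzyme for no effect and no enzyme for full effect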
M1AAP inhibition: malaria alanyl aminopeptidase activity blockers – biochemical, fluorogenic H-Leu-NHMec substrate, 1536-well (AID 1445) | one-dose inhibition, % at 30 µM; IC50 in µM for titrated hits | recombinant M1AAP, H-Leu-NHMec fluorogenic kinetic assay; higher % means a stronger effect | actives 0.42% (n = 220,000);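 active means primary inhibition above the hit cutoff, then over 50% inhibition at one or more dose response concentrations, cut at about 23% in these data, passing the limit was not always enough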;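 further: plate controls were DMSO full reaction for no effect and no enzyme background for full effect; strong numbers were not always called active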
Siah-1 displacement: blockers of Siah-1 interaction with plectin peptide – biochemical, fluorescence polarization, rhodamine-plectin, uHTS, primary screen (AID 1817). Siah-1 / rhodamine-plectin peptide fluorescence polarization; higher % means a stronger effect. one-dose displacement, % at 20 µM; IC50 in µM for titrated hits. actives 0.02% (n = 290,000);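 active means displacement of at least 50% at 20 µM, with a fluorescence ratio check between 0.3 and a set limit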;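 further: plate controls were Siah plus tracer with DMSO for no effect and tracer alone without Siah for full effect; strong numbers were not always called active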
M17LAP inhibition: P. falciparum M17LAP inhibitors, primary screen, biochemical, fluorogenic H-Leu-NHMec substrate, 1536-well (AID 1619); one-dose inhibition, % at 30 µM; IC50 in µM for titrated hits; recombinant M17LAP, H-Leu-NHMec fluorogenic kinetic assay; higher % means a stronger effect; actives 0.38% (n = 220,000);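 active means compound inhibiting the enzyme by more than half at any dose during confirmatory dose-response retesting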;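 further: plate controls were full reaction with DMSO carrier for no effect and no enzyme background for full effect; strong numbers were not always called active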
XIAP displacement: XIAP antagonists, biochemical, IAP family, fluorescence polarization (AID 1018); XIAP BIR domain, fluorescence polarization peptide displacement; higher % means a stronger effect; actives 0.007% (n = 200,000); displacement, % at 20 µM, or IC50 in µM where a hit was titrated; in the data active means displacement above about 50%; further: a part of the inactive calls stands beside numbers as strong as those of hits
* hit, by the source's call; / = not tested or not shown. This is a subset (hit frequency here may not be typical).

1) Cc1cccc(N2CCN(C(=O)c3cc4c(=O)n(C)c5ccccc5c4n3C)CC2C)c1 (configuration not stated)
2) COc1ccc(-c2csc(Nc3ccccn3)n2)cc1
3) CC(=O)Nc1cccc(-c2nnc(-c3ccc(C)cc3)o2)c1
4) O=C(N/N=C/c1ccc([N+](=O)[O-])cc1)c1cc(-c2ccc3c(c2)OCO3)n[nH]1
5) COc1ccc(CC(=O)Nc2nc3ccccc3[nH]2)cc1
6) CN/C(=C/[N+](=O)[O-])NCCSCc1ccc(CN(C)C)o1
7) COc1ccc(C2CC(c3ccccc3)=NN2C(=O)CCCC(=O)O)cc1 (configuration not stated)
8) NS(=O)(=O)c1ccc(NC(=O)Nc2ccc(C(F)(F)F)cc2)cc1
9) N#Cc1c(-c2cccc(Br)c2)cc(-c2ccco2)[nH]c1=O
10) NS(=O)(=O)c1ccc(NC(=O)Nc2ccccc2)cc1

| screen / no. | 1 | 2 | 3 | 4 | 5 | 6 | 7 | 8 | 9 | 10 |
| --- | --- | --- | --- | --- | --- | --- | --- | --- | --- | --- |
| LYP inhibition | 0% | 1% | -9% | -5% | -4% | 0% | 0% | -2% | -8% | -2% |
| M1AAP inhibition | 6% | 12% | / | -3% | 0% | 18% | / | -3% | 14% | -1% |
| Siah-1 displacement | 3% | -1% | 26% | 0% | -8% | -6% | 4% | -2% | 13% | 4% |
| M17LAP inhibition | 3% | 2% | / | -1% | -11% | 12% | / | -7% | 5% | 10% |
| XIAP displacement | -6.2% | -0.7% | / | / | / | -2.8% | / | / | -4.7% | / |

Rewritten as labelled records: part of the list above.
#7 COc1ccc(C2CC(c3ccccc3)=NN2C(=O)CCCC(=O)O)cc1 (configuration not stated)
  LYP inhibition: 0%; M1AAP inhibition: /; Siah-1 displacement: 4%; M17LAP inhibition: /; XIAP displacement: /
#8 NS(=O)(=O)c1ccc(NC(=O)Nc2ccc(C(F)(F)F)cc2)cc1
  LYP inhibition: -2%; M1AAP inhibition: -3%; Siah-1 displacement: -2%; M17LAP inhibition: -7%; XIAP displacement: /
#9 N#Cc1c(-c2cccc(Br)c2)cc(-c2ccco2)[nH]c1=O
  LYP inhibition: -8%; M1AAP inhibition: 14%; Siah-1 displacement: 13%; M17LAP inhibition: 5%; XIAP displacement: -4.7%

For convenience, some entries already given.
9) N#Cc1c(-c2cccc(Br)c2)cc(-c2ccco2)[nH]c1=O
10) NS(=O)(=O)c1ccc(NC(=O)Nc2ccccc2)cc1

| screen / no. | 9 | 10 |
| --- | --- | --- |
| LYP inhibition | -8% | -2% |
| M1AAP inhibition | 14% | -1% |
| Siah-1 displacement | 13% | 4% |
| M17LAP inhibition | 5% | 10% |
| XIAP displacement | -4.7% | / |
